NPYLR7 agonist – activates Aedes aegypti NPYLR7 receptor; HEK293T NPYLR7/Galpha15, GCaMP6s calcium fluorescence; activation, % at 10 µM; 0.15% of 270,000 active; in the data active = activation above about 40%;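 note: 0% = vehicle and 100% = reference agonist at the receptor; some compounds past the cut are filed as inactive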
NPYLR7 agonist max-min – second read-out of NPYLR7 agonist, no call of its own (marks repeat the call); activation, %; measured here: Max-Min RFU normalised activation; some inactives read as strong as hits;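 span of the calcium signal over five minutes; 0% = vehicle and 100% = native peptide agonist; compound fluorescence can raise it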
* hit, by the source's call.

SMILES | NPYLR7 agonist | NPYLR7 agonist max-min
COc1ccc(C(=O)N(Cc2cc(NC(=O)C3CCCC3)ccc2N(C)C)CC2CCCO2)cc1 (stereo not drawn) | 28 | 28
COc1cc(OC)cc(C(=O)Nc2ccc(Nc3ccc(-n4ccc(C)n4)nn3)cc2)c1 | -7 | -9
O=C(Nc1cccc(-c2ncc[nH]2)c1)c1sccc1Br | -3 | 2
CN(C(=O)c1csc(-c2ccoc2)n1)c1ccc(Cl)cn1 | 2 | 0
COCCN(Cc1cc(NC(=O)C2CC2)ccc1N(C)C)C(=O)Cc1cccs1 | 24 | 26
CN(C(=O)CC1C(=O)NCCN1Cc1ccccc1C(F)(F)F)C1CCOCC1 (stereo not drawn) | -2 | -2
O=C1CSC(c2ccccn2)N1c1ccc(Br)cc1 (stereo not drawn) | -7 | -13
CC(NC(=O)CCC1CCCO1)c1ccc(Cl)s1 (stereo not drawn) | -3 | -4
Cc1nc(NC(=O)NCC2CCCC(CNC(=O)Nc3n[nH]c(C)n3)C2)n[nH]1 (stereo not drawn) | 0 | 0
COc1ccc(Cl)cc1Cn1c(C)c(C(=O)NCc2cccc(C(F)(F)F)c2)sc1=O | -10 | 0
Cc1cccc(OCC(C)NC(=O)NCc2scnc2C)c1 (stereo not drawn) | -1 | -6
Nc1nc(N)nc(Cn2nc(-c3ccccc3)cc(C(F)(F)F)c2=O)n1 | -1 | 0

Entries shown so far with an aryl methoxy group (3):
SMILES | NPYLR7 agonist | NPYLR7 agonist max-min
COc1ccc(C(=O)N(Cc2cc(NC(=O)C3CCCC3)ccc2N(C)C)CC2CCCO2)cc1 (stereo not drawn) | 28 | 28
COc1cc(OC)cc(C(=O)Nc2ccc(Nc3ccc(-n4ccc(C)n4)nn3)cc2)c1 | -7 | -9
COc1ccc(Cl)cc1Cn1c(C)c(C(=O)NCc2cccc(C(F)(F)F)c2)sc1=O | -10 | 0

The listing continues.
SMILES | NPYLR7 agonist | NPYLR7 agonist max-min
CC1C(=O)C(c2ccc(F)cc2)C(=N)N1c1ccccc1 (stereo not drawn) | 8 | 8
Cc1nc(COc2ccc(CNCCS(C)(=O)=O)cc2)no1 | 0 | 14
COCCCN(Cc1ccc(C(C)(C)O)o1)Cc1ccc(C)s1 | -2 | 5
CCn1c(N2CCN(Cc3ccc(Cl)cc3Cl)CC2)nc2c1c(=O)[nH]c(=O)n2C | 2 | 22
Cc1cccc2c1NC1(CCN(Cc3ccccn3)CC1)NC2=O | -1 | 6
CN(CCCc1ccccc1)C(=O)c1ccc2c(=O)n(C)c(=S)[nH]c2c1 | -6 | -8
Cc1cc(CNC(=O)c2cccc(NCc3ccc(F)cc3)c2)n[nH]1 | -1 | -2
O=C(CCc1ccccc1)N1CCN(c2c(-c3ccccc3)cnc3ncnn23)CC1 | 25 | 18
O=C(CCN(CCCN1CCOCC1)c1nc(-c2cccs2)nc2ccccc12)NCc1cccc(C(F)(F)F)c1 | 29 | 33
CC(C)c1c(C(=O)Nc2ccccc2)c(-c2ccccc2)c(-c2ccc(F)cc2)n1CCC(O)CC(O)CC(=O)O (stereo not drawn) | -26 | -34
O=C(NCc1ccc(OC(F)F)cc1)c1cnccn1 | -4 | -4
CC(NCc1c(C(=O)N2CCCC2)nc2sccn12)c1cnn(-c2ccccc2)c1 (stereo not drawn) | -9 | -15
O=S1(=O)CCC(N2CCN(Cc3nc(-c4ccc(C(F)(F)F)cc4)no3)CC2)C1 (stereo not drawn) | 0 | -7
O=C(Nc1ccc(OCc2cccc(F)c2)c(Cl)c1)c1ccc[nH]c1=S | 12 | 8
CCOC(=O)c1cnc(-c2ccc(OC)c(OC)c2)nc1NCCCN1CCOCC1 | 30 | 29
Cc1noc(C)c1CN(C)C1CCCCC1 | 9 | 7
Cc1[nH]c(=O)[nH]c(=O)c1CCC(=O)Nc1ccccc1 | -8 | -13
C=C(C)Cn1c(SCC(C)=O)nc2c1c(=O)n(C)c(=O)n2C | 2 | 1
O=C(CSc1nnc(Cc2ccccc2)o1)c1ccc2ccccc2c1 | 1 | -2
COc1ccc(-c2cc(=O)n(C(C)C(=O)c3ccc(C)cc3)cn2)cc1 (stereo not drawn) | -13 | -13
O=C(c1ccc(Cl)cc1F)N1CCCc2ccccc21 | -1 | 11
CN(C)C=NC(=O)C(C#N)C1=Nc2ccccc2CC1 (stereo not drawn) | 0 | 0
O=C(NCc1cccnc1-n1cncn1)c1ccc2c(c1)CCCO2 | -4 | -9
CCOC(=O)C1(Cc2cccc(OC)c2)CCN(Cc2csc(C(C)=O)c2)CC1 | 2 | -2
CCC1(C)NC(=O)N(N=CC2=CCC3CC2C3(C)C)C1=O (stereo not drawn) | 5 | 3
Cc1ccc(N2CCOc3c(O)cc(-c4ccccc4C)cc3C2)nn1 | 10 | -4
CC(=O)CSc1nc2sc3c(c2c(=O)n1-c1ccccc1)CCC(C)C3 (stereo not drawn) | -1 | -7
Cc1ccc(S(=O)(=O)NCc2ccccc2)cc1C(=O)N(C)C | 2 | 0
N#Cc1ccc(OCC(=O)NCc2ccc(CN3CCCC3)cc2)cc1 | 4 | -1
Cc1ccc(NC(=O)c2nn(C)cc2Br)cc1C | -6 | -8
Cc1nc2c(C)cccn2c(=O)c1NC(=O)c1ccc(F)cc1F | 2 | 1
COc1ccccc1-c1nc2cccc(C)n2c1NC(C)(C)C | -5 | 0
CN(CC(F)(F)F)C(=O)CSCc1ccc(F)cc1C#N | 1 | -1
NC(=O)[C@H](Cc1c[nH]c2ccccc12)NC(=O)c1ccc2nc(-c3ccccc3)c(-c3ccccc3)nc2c1 | -7 | -10
Cc1nn(C)c2ncc(CN3CCc4ccccc4C3)cc12 | 13 | 9
Cn1nc(C(=O)Nc2nc3ccc(Oc4ccccc4)cc3s2)ccc1=O | 7 | 4
CCC(C)CN(CC(=O)N1CCc2sccc2C1COc1cccc(F)c1)C(=O)Nc1ccc(C)cc1 (stereo not drawn) | -2 | -2
C=CCNC(=O)N[C@H]1[C@H](O)[C@@H](N2CCC(C(=O)OC)CC2)[C@@H]2OC[C@H]1O2 | -13 | -14
COc1ccc(CN2CCCC(CCC(=O)Nc3ccc(OC)c(Cl)c3)C2)cc1 (stereo not drawn) | 11 | 10
CC(c1cccc(-c2ccccc2C(N)=O)c1)N(C)C (stereo not drawn) | -1 | -2
CCSCCOC(=O)C1=C(C)NC2(O)c3ccccc3C(=O)C12O (stereo not drawn) | 5 | -1
CC(C)Oc1ccccc1Nc1ccc2c(C3CC3)noc2n1 | 1 | 0
CN(Cc1cc(C(C)(C)C)n[nH]1)c1nc(-c2ccncc2)nc2c1CNC2 | 1 | 9
O=C(c1scc2c1OCCO2)N1CCCC(N2CCN(c3cccc(Cl)c3)CC2)C1 (stereo not drawn) | 3 | -3
Fc1ccccc1OCCn1c(SCc2nc3ccccc3[nH]2)nc2ccccc21 | 10 | 6
COc1ccc(N2C(=O)CSC2c2coc3ccccc3c2=O)cc1Cl (stereo not drawn) | 2 | 3
CCOc1ccc(NC(=O)CCl)cc1S(=O)(=O)N1CCCC1 | -1 | -7
COc1cccc(NC(=O)NCC2CCN(c3nc(Cc4ccc(F)cc4)ns3)CC2)c1 | -3 | 8
O=C(Nc1cc2c(cc1Br)OCCO2)c1cccc(I)c1 | -5 | -12
COc1cccc2sc(N(Cc3cccnc3)C(=O)c3ccc(C#N)cc3)nc12 | -4 | 1
CC(=O)NC(CC(C)C)C(=O)N1CCN(Cc2cccc(-c3noc(-c4cccc(C(F)(F)F)c4)n3)c2)CC1 (stereo not drawn) | 17 | 10
CCCN1C(=O)C(c2c(CC)[nH]n(-c3ccc(Cl)c(Cl)c3)c2=O)=C([n+]2ccc(C)c(C)c2)C1=O | -9 | 1
CCC(C)(C)C1CCC(=NNc2nc3ccccc3[nH]2)CC1 (stereo not drawn) | -8 | -10
Cc1ccc(-c2ccc(OCCNS(=O)(=O)c3ccc(Cl)s3)nn2)cc1 | -8 | -15
CN1CC(=O)N(c2ccc(F)cc2)C1=S | 5 | 7
Clc1ccc(CNCCCOc2ccccn2)c(Cl)c1 | 10 | 5
O=C(Nc1ncnc2sccc12)c1ccc(S(=O)(=O)N2CCc3ccccc3C2)cc1 | -7 | -9
C=CCNC(=S)Nc1ccc(F)c(Cl)c1 | 7 | 6
CC1CN(S(=O)(=O)c2ccc(Cl)cc2)CCN1S(=O)(=O)c1ccc(Cl)cc1 (stereo not drawn) | -3 | 2
COc1ccc(CNC2CCN(c3ccc(C(=O)N4CCCC(CO)C4)cc3)CC2)cc1OC (stereo not drawn) | 27 | 13

(listing goes on)
SMILES | NPYLR7 agonist | NPYLR7 agonist max-min
Cc1nccn1CC1CCCN(C(=O)c2csc(Cc3ccccc3)n2)C1 (stereo not drawn) | 18 | 9
CN(CCCn1cccn1)C(=O)c1ccc2cccc(Cl)c2n1 | 16 | 9
COc1ccc(/C=C2/SC(=Nc3ccccc3)NC2=O)c(OC)c1OC | -5 | -8
CCC(C)[C@H](NC(=O)N1CCCC1)C(=O)Nc1cccc(COC)c1 (stereo partly drawn) | 3 | 2
CC(Cc1c[nH]c2ccccc12)NS(=O)(=O)c1ccc2[nH]cc(C(=O)O)c(=O)c2c1 (stereo not drawn) | 11 | 12
CC1Oc2ccccc2N(CCC(=O)N(C)CC(=O)Nc2c(Cl)cccc2Cl)C1=O (stereo not drawn) | 1 | 0
Cc1ccccc1N1CCN(C(=O)c2ccc(C#CC(C)(C)O)o2)C(C)C1 (stereo not drawn) | 3 | 2
O=C(Cc1csc(-c2cccc(Br)c2)n1)NCCC(=O)N1CCCC1 | -1 | -2
COc1ccc(C)c2sc(N(CCN3CCOCC3)C(=O)/C=C/c3cccs3)nc12 | 5 | 3
CCN1CCN(C(=O)c2ccccc2N2CCC(NC(=O)c3cccc(Br)c3)CC2)CC1 | 4 | 16
COc1ccccc1OCc1nc(C(=O)NCC2CCCO2)cs1 (stereo not drawn) | 4 | -5
CSc1ccccc1C(=O)N1CCC(n2cnc3ccc(C)cc32)CC1 | -3 | -1
Cc1c(Cl)cccc1NC(=O)CCc1ccc(S(=O)(=O)NC(C)(C)C)cc1 | 6 | 9
CC/C(=C/C(=O)NCCc1nncn1C1CC1)c1cccc(Cl)c1 | 6 | -15
COC(=O)CN1C(=O)N(C2CCCCC2)C(N(O)C(=O)NC2CCCCC2)C1(C)C (stereo not drawn) | 1 | -2
O=C(Nc1ccc(Br)cc1Br)Nc1cccc2[nH]c([C@@H]3O[C@H](CO)[C@@H](O)[C@H](O)[C@H]3O)nc12 | 3 | 8
C=CCN(CC(=O)N(Cc1ccccc1)Cc1cccs1)C(=O)Nc1c(C(C)C)cccc1C(C)C | 18 | 24
COc1ccc(F)c(CN2CCCC(O)(CN(C)Cc3cccnc3)C2=O)c1 (stereo not drawn) | 31 | 14
CC(=O)O[C@]1(C(C)=O)CCC2C3C[C@H](C)C4=CC(=O)CC[C@]4(C)C3CC[C@@]21C (stereo partly drawn) | -3 | -9
O=C(NC1CCS(=O)(=O)C1)c1c[nH]c2ccc(Br)cc12 (stereo not drawn) | 3 | 3
O=C(c1ccc(CSc2nccc(C(F)(F)F)n2)cc1)N1C2CCC1CC(Oc1ccc3c(c1)OCO3)C2 (stereo not drawn) | 10 | -5
Cc1ccc(C(c2ccc(Br)cc2)c2ccc(C)o2)o1 | 11 | 9
Cc1nc(C)c(Cc2ccccc2F)c(N2CCN(C(=O)c3cccc(Br)c3)CC2)n1 | -7 | 2
O=C(O)C1CC=CCC1C(=O)Nc1nc2ccc(Cl)cc2s1 (stereo not drawn) | 7 | 7

Record cards, as listed above. Screens in order: NPYLR7 agonist	NPYLR7 agonist max-min
Listed for `Cc1nc(C)c(Cc2ccccc2F)c(N2CCN(C(=O)c3cccc(Br)c3)CC2)n1` → -7	2
Listed for `COc1ccc(F)c(CN2CCCC(O)(CN(C)Cc3cccnc3)C2=O)c1` (stereo not drawn) → 31	14
Listed for `CC/C(=C/C(=O)NCCc1nncn1C1CC1)c1cccc(Cl)c1` → 6	-15
Listed for `Cc1ccc(C(c2ccc(Br)cc2)c2ccc(C)o2)o1` → 11	9
Listed for `O=C(Nc1ccc(Br)cc1Br)Nc1cccc2[nH]c([C@@H]3O[C@H](CO)[C@@H](O)[C@H](O)[C@H]3O)nc12` → 3	8

(list continues)
SMILES | NPYLR7 agonist | NPYLR7 agonist max-min
CC(C)(O)C#Cc1ccc(-c2nccn2Cc2ccc3c(c2)OCO3)s1 | 10 | 0
COC(=O)c1nn2cc(-c3[nH]ncc3[N+](=O)[O-])cnc2c1Cl | -7 | -12
CC1CC1C(=O)NC1CCN(C(=O)C2CC2)CC1 (stereo not drawn) | 15 | 8
c1ccc(CSc2nc3ncccc3[nH]2)nc1 | 12 | 10
CCCCCNC(CC(=O)Nc1ccc2ccccc2c1)C(=O)O (stereo not drawn) | 12 | 8
O=C(CCn1c(=O)[nH]c(=O)c2ccccc21)N1CCCC2CCCCC21 (stereo not drawn) | 7 | 4
Cc1cccc(C(=O)N(CCN2CCOCC2)Cc2c(-c3ccccc3)noc2N2CCCC2)c1 | 11 | 13
Cc1cc(C)nc(NS(=O)(=O)c2ccc(NC(=S)NC(=O)COc3ccc(Br)cc3Cl)cc2)n1 | -9 | -13
O=C(Nc1cccc(N2CCC(NCCc3ccccc3C(F)(F)F)CC2)c1)c1ccncc1 | 6 | 4
CCc1c(C)nn(-c2ccc(C(=O)NCC(c3ccccc3)c3ccccc3)cc2)c1C | -9 | -13
COc1ccc(OC)c(CN2CCN(c3cc(OC)ncn3)CC2)c1 | 11 | 0
CCOc1ccc2c(=O)c(Oc3ccccc3Br)c(C(F)(F)F)oc2c1 | -1 | -5
Cc1ccc(C(=O)N2CCCC(N3CCN(c4ccccc4C)CC3)C2)c(C)c1 (stereo not drawn) | 1 | -1

Only part of the results is shown. The share of hits here may be higher or lower than overall.
